Cruzain inh noDet – inhibitors of Trypanosoma cruzi cruzain without detergent. 200,000 tested, 2.3% active. Potency, µM, for inactives: max response, negative = inhibition, hits mostly inhibitors. purified cruzain, Z-FR-AMC fluorescence, no detergent;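 further: plate controls were enzyme without inhibitor for no effect and buffer without enzyme for full effect; nearly all actives have a fitted effect of over 40% in size; top concentration of the series not given in the record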
Target sequence (P25779 123-467 limits assumed): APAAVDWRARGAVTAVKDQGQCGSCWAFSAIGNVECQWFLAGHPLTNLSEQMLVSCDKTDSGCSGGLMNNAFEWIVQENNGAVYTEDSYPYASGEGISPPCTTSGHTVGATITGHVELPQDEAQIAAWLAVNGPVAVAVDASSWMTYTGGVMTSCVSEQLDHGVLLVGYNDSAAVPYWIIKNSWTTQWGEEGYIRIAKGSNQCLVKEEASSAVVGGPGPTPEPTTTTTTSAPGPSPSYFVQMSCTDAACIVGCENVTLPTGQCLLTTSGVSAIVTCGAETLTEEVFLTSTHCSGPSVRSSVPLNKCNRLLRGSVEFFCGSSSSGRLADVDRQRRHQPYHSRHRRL
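Purified cruzain at 1.5 nM, pre-incubated 15 min with compound at room temperature in 100 mM sodium acetate pH 5.5, 5 mM DTT, 0.00005% Triton X-100. Reaction started with 2 uM Z-FR-AMC; AMC fluorescence increase over 60 s gives rate.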
Cruzain inh Det – cruzain (T. cruzi) inhibition with detergent. 200,000 tested, 0.43% active. AID 1478. purified cruzain, Z-FR-AMC fluorescence, 0.01% Triton. Potency, µM, for the others: max response, negative = inhibition, most hits filed as inhibitors;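 further: plate controls were neutral wells for no effect and buffer without enzyme for full effect; nearly all actives have a fitted effect of over 40% in size; top concentration of the series not given in the record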
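Cruzain (1.5 nM) preincubated 15 min at RT with compound in 100 mM sodium acetate pH 5.5, 5 mM DTT, 0.01% Triton X-100. Reaction started with 2 uM Z-FR-AMC; AMC fluorescence (ex 360/em 450 nm) change over 60 s gave rate.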
* marks the source's active call; other numbers are inactive results; ? = inconclusive; & = joins results of further samples. The call rests on the fitted dose curve; in most records, active means well fitted curve in the direction sought with a large enough effect; inconclusive means small, poorly fitted or top-dose-only effect, or another doubt; inactive means no such curve, though single readings can be large; an effect the other way counts as inactive or inconclusive. Potency means the concentration at half of the fitted maximal effect. This is a subset, so the mix of outcomes need not match the whole.

The opening 3 entries, to show the layout:
SMILES	Cruzain inh noDet	Cruzain inh Det
COC(=O)[C@H](COC(C)(C)C)NC(=O)O[C@@H]1Cc2cc(OC)ccc2O[C@H]1c1cccc(OC)c1	-1%	2.5%
CC[C@H](C)[C@@H](NC(=O)O[C@@H]1C(=O)c2cc(OC)ccc2O[C@H]1c1cccc(OC)c1)C(=O)OC	-5%	-5.1%
COc1cccc([C@@H]2Oc3ccc(Br)cc3C(=O)[C@H]2OC(=O)NCCc2ccc(OC)c(OC)c2)c1	-6%	-0.6%

The listing, repeating the preview:
SMILES	Cruzain inh noDet	Cruzain inh Det
COC(=O)[C@H](COC(C)(C)C)NC(=O)O[C@@H]1Cc2cc(OC)ccc2O[C@H]1c1cccc(OC)c1	-1%	2.5%
CC[C@H](C)[C@@H](NC(=O)O[C@@H]1C(=O)c2cc(OC)ccc2O[C@H]1c1cccc(OC)c1)C(=O)OC	-5%	-5.1%
COc1cccc([C@@H]2Oc3ccc(Br)cc3C(=O)[C@H]2OC(=O)NCCc2ccc(OC)c(OC)c2)c1	-6%	-0.6%
CCCCC/C=C\C/C=C\C/C=C\C/C=C\CCCCCC(=O)NCC(=O)O	3%	-6.3%
C(CCOCC1CO1)COCC1CO1 (configuration not stated)	6%	5.3%
O=C1C(Cl)=C(NC2CCc3ccccc32)C(=O)c2ncccc21 (configuration not stated)	?	?
Cc1c(C(=O)NC2CCCCC2)sc2nc3ccc(N)cc3n12	?	-6.1%
CC1=C(C(=O)OCc2ccccc2)C(c2ccc(C3CCCCC3)cc2)NC(=O)N1CCCCCC(=O)O (configuration not stated)	?	?
c1cc(Cc2cnc[nH]2)ccn1	5%	-0.1%
CN[C@@H](Cc1c[nH]c2ccccc12)C(=O)O	-4%	-3.8%
COc1cccc([C@@H]2Oc3ccc(Br)cc3C[C@H]2OC(=O)N[C@H](C)C2CCCCC2)c1	-14%	-2.8%
CCCCCC(O)/C=C/C=C\CCCCCCCC(=O)O (configuration not stated)	-3%	-2.1%

Sorted by count of non-hydrogen atoms (ascending): three of the compounds above
SMILES	Cruzain inh noDet	Cruzain inh Det
CC[C@H](C)[C@@H](NC(=O)O[C@@H]1C(=O)c2cc(OC)ccc2O[C@H]1c1cccc(OC)c1)C(=O)OC	-5%	-5.1%
COC(=O)[C@H](COC(C)(C)C)NC(=O)O[C@@H]1Cc2cc(OC)ccc2O[C@H]1c1cccc(OC)c1	-1%	2.5%
CC1=C(C(=O)OCc2ccccc2)C(c2ccc(C3CCCCC3)cc2)NC(=O)N1CCCCCC(=O)O (configuration not stated)	?	?

Further compounds:
SMILES	Cruzain inh noDet	Cruzain inh Det
CNC1C2CN3CCC(O2)C13 (configuration not stated)	-4%	6.1%
Cc1nc2ccccc2oc1=O	-7%	2.0%
Cc1c(O)c(O)cc2c1oc1c3ccccc3oc(=O)c21	?	-9.5%
COc1cccc(CS(=O)(=O)c2nnnn2C2CCCCC2)c1	-2%	0.7%
Nc1nc2c(c(=O)[nH]1)N=C(CNc1ccc(C(=O)NC(CCC(=O)O)C(=O)O)cc1)CN2 (configuration not stated)	-2%	-2.3%
CC(C)[C@@]1(NC(=O)[C@@H]2C[C@H]3c4cccc5[nH]cc(c45)C[C@@H]3N(C)C2)O[C@]2(O)[C@H]3CCCN3C(=O)CN2C1=O	16%	-4.8%
CCC1=C2CC[C@H]3C(=O)N(C)C(=O)[C@H]3[C@H]2[C@@]2(C)C(=O)N(CC3CC3)C(=O)N2C1=O	-3%	-2.7%
COc1cc(-c2ccc(N=C=O)c(OC)c2)ccc1N=C=O	32µM*	-3.6%
COC(=O)c1ccccc1	8%	-0.5%
CC(=O)N[C@H]1C(O[C@@H]2O[C@H](C[C@@H](O)[C@H]3O[C@@H](N4CCC(=O)NC4=O)[C@H](O)[C@@H]3O)[C@H](O)[C@H](O)[C@H]2NC(=O)/C=C/CCCCCCCCCCC(C)C)OC(CO)[C@@H](O)[C@@H]1O (some centres not stated)	?	-0.9%
NCCC[C@@H](CC(=O)N[C@@H]1CCCC[C@H]1C(=O)N[C@H](CC(=O)N[C@@H](CCC(=O)O)CC(=O)O)Cc1ccccc1)NC(=O)C[C@H](CO)NC(=O)[C@@H]1CNCC[C@H]1N	15%	0.7%
CC(C)C1=CC2=CC[C@@H]3[C@@](C)(C(=O)O)CCC[C@]3(C)C2CC1 (some centres not stated)	16%	1.6%
C=C(C)C1CC=C(C)C(O)C1 (configuration not stated)	-2%&-11%	3.0%&4.4%
Cc1c(N=C=O)cccc1N=C=O	-14%	-8.9%
CCC1OC(=O)CC(O)C(C)[C@@H](O[C@@H]2OC(C)[C@H](O[C@@H]3C[C@@](C)(O)C(O)C(C)O3)C(N(C)C)C2O)[C@H](CC=O)CC(C)C(=O)/C=C/C(C)=C/[C@@H]1COC1OC(C)C(O)C(OC)[C@@H]1OC (some centres not stated)	13%	-3.6%
CCCCC[C@H](O)/C=C/[C@H]1[C@H](O)CC(=O)[C@@H]1C/C=C\CCCC(=O)O	?	4.2%&0.5%
CCC(C)C1O[C@]2(C=CC1C)CC1CC(C/C=C(\C)[C@H](OC3CC(OC)C(O[C@H]4CC(OC)[C@@H](O)C(C)O4)C(C)O3)[C@@H](C)/C=C/C=C3\COC4C(O)C(C)=C[C@H](C(=O)O1)[C@@]34O)O2 (some centres not stated)	?	-6.3%
COc1ccc2c(c1)O[C@@H](c1cccc(C(F)(F)F)c1)[C@H](OC(=O)NCc1ccc3c(c1)OCO3)C2=O	-2%	-2.2%
CC1=CC(=O)C2=C(C)CC[C@@H]3[C@@H](OC(=O)[C@H]3C)[C@H]12	-9%	-1.3%
CC1(C)O[C@H]2C[C@@H]3[C@H]4CCC5=CC(=O)C=C[C@]5(C)[C@@]4(F)[C@@H](O)C[C@]3(C)[C@]2(C(=O)CO)O1	-1%	0.5%
Cc1ccc(C)c(O)c1	-1%	2.1%
CC(=O)N(C[C@@H](C)C(=O)O)c1c(I)cc(I)c(N)c1I	-4%	-0.9%
COc1cc(OC)c([C@@H]2O[C@H](CO)[C@@H](O)[C@H](O)[C@H]2O)c(OC)c1	-2%	2.9%
COc1cccc2c1OC(=O)CC2c1ccc(C)cc1 (configuration not stated)	-2%	-2.2%
O=[N+]([O-])c1ccc(F)c([N+](=O)[O-])c1	-20%	4.1%
CC1CCC(C(C)C)C(OC(=O)c2ccccc2N)C1 (configuration not stated)	-11%	-7.2%
C[C@@]1(C(NC(=O)c2cccs2)c2ccc(-c3ccccc3)cc2)C[C@H]1C1CCCCC1 (some centres not stated)	4µM*	3.5%
COC(=O)C12CC3=C[C@H](CC3=O)Cc3ccccc3[C@@H]1CNC2=O (some centres not stated)	1%&-6%	1.9%&2.2%
C[C@H]1C(c2ccccc2)=NN(c2ccccc2)[C@@H]1CO	-27%	1.7%
COc1ccc(OC)c(-c2ccc(C(=O)O)o2)c1	6%	-26%
CC(=O)Nc1c(I)c(C(=O)N[C@H]2[C@@H](O)[C@H](O)[C@H](CO)O[C@@H]2O)c(I)c(N(C)C(C)=O)c1I	-4%	-2.0%
C=C(C)[C@H]1[C@H]2OC(=O)[C@@H]1[C@]1(O)C[C@H]3O[C@]34C(=O)O[C@H]2[C@@]14C	-17%	-1.9%
CSc1ccc(/C=C2/C(C)=C(CC(=O)O)c3cc(F)ccc32)cc1	23%	-9.0%
Nc1ncnc2c1nc(Br)n2[C@H]1O[C@H]2COP(=O)(O)O[C@H]2[C@@H]1O	7%	-0.4%
CC(C)CC(N)C1(c2ccc(Cl)cc2)CCC1 (configuration not stated)	-1%	-0.6%
C=CC=O	-4%	-5.0%
CCCCC(CC)COC(=O)c1ccccc1C(=O)O (configuration not stated)	3%	2.4%
COC(=O)c1ccc(C(NC(=O)OCc2ccccc2)/C(=C/[C@@H](C)C(=O)NCc2ccc(S(C)(=O)=O)cc2)c2cccnc2)cc1 (some centres not stated)	?	-0.4%
O=C(N[C@@H](CO)[C@@H](O)c1ccc([N+](=O)[O-])cc1)C(Cl)Cl	-6%	-0.5%
c1ccc(-c2csc(-c3nc4ccccc4[nH]3)n2)cc1	-3%	1.1%
O=[N+]([O-])O[C@H]1CO[C@H]2[C@@H]1OC[C@H]2O	-7%	-1.9%
C[C@@H]1C=C[C@](Cc2ccccc2)(C(=O)NCCN2CCOCC2)N1C(=O)c1ccccc1	-1%	2.6%
O=C(Cl)c1c(Cl)cccc1Cl	-3%	2.8%
C=C(C)C(=O)c1ccc(F)cc1	7%	3.9%
COC(=O)[C@H]1O[C@@H](c2cc(OC)c(C)c(OC)c2O)[C@H](C)[C@@H](O)[C@H]1C	7%	2.4%
CC(=O)Oc1ccc(C2(c3ccc(OC(C)=O)cc3)C(=O)Nc3ccccc32)cc1	5%	-0.1%
CCN1C[C@]2(C)CC[C@H](OC)[C@@]34[C@@H]2[C@H](OC(C)=O)[C@]2(OCO[C@@]25C[C@@H](OC)[C@@H]2C[C@@]3(O)[C@H]5[C@@H]2OC)[C@H]14	-8%	1.9%
CC(C)C[C@@H](CC(=O)N[C@@H](CCCN)CC(=O)N[C@@H]1CCNC[C@H]1C(=O)N[C@H](CC(=O)N[C@@H](CCC(=O)O)CC(=O)O)Cc1ccccc1)NC(=O)[C@@H]1CCCC[C@H]1N	-3%	1.2%

In the list so far, 2 have a furan ring, fused or not.
SMILES	Cruzain inh noDet	Cruzain inh Det
Cc1c(O)c(O)cc2c1oc1c3ccccc3oc(=O)c21	?	-9.5%
COc1ccc(OC)c(-c2ccc(C(=O)O)o2)c1	6%	-26%

Next compounds.
SMILES	Cruzain inh noDet	Cruzain inh Det
C/C=C/C=C/C=O	0%	-1.0%
O=[N+]([O-])c1cccc(Cl)c1Cl	6%	-4.2%
COc1ccc([C@@H]2CC(=O)c3c(O)cc(O[C@H]4O[C@@H](CO[C@H]5O[C@@H](C)[C@@H](O)[C@@H](O)[C@@H]5O)[C@@H](O)[C@@H](O)[C@@H]4O)cc3O2)cc1O	-6%	-3.9%
CN=C=S	2%	0.8%
O=C(O)C1OC(O)C(O)C(O)C1O (configuration not stated)	-3%	-2.0%
COC(=O)[C@@]1(Cc2ccccc2)[C@H]2c3cc(C(=O)N(C)C)n(CCSCCO)c3C[C@H]2CN1C(=O)c1ccccc1	?	1.2%
C[N+]1=Cc2cc3c(cc2CC1)OCO3	-11%	-0.2%
CC(C)=C1CCC(C)CC1=O (configuration not stated)	2%	1.6%
CC(=O)N1[C@H](C)C=C[C@]1(Cc1ccccc1)C(=O)NCc1ccc(C)o1	6%	-0.6%
COc1ccc2c(c1)C(=O)[C@H](OC(=O)NCc1ccc3c(c1)OCO3)[C@@H](c1ccc(OC)c(Br)c1)O2	-6%	-5.8%
C=C(C)C(=O)OCCCCCC	-6%	0.9%
CC(C)=CCC/C(C)=C\COc1c2ccoc2cc2oc(=O)ccc12	-9%	-4.5%

One compound at a time, as listed above. Screens in order: Cruzain inh noDet, Cruzain inh Det
O=[N+]([O-])c1ccc(F)c([N+](=O)[O-])c1 is listed as -20%, 4.1%
C[C@@]1(C(NC(=O)c2cccs2)c2ccc(-c3ccccc3)cc2)C[C@H]1C1CCCCC1 (some centres not stated) is listed as 4µM*, 3.5%

New compounds follow.
SMILES	Cruzain inh noDet	Cruzain inh Det
Cc1cc(CNC(=O)[C@H](C)[C@H]2C[C@]2(C)[C@H](NC(=O)OCc2ccccc2)c2ccccc2)nn1C	?	-1.3%
Nc1ccc([N+](=O)[O-])c(N)c1	-14%	-3.9%
CCCCC/C=C\C=C\[C@@H](O)CCCCCCCC(=O)O	-9%	1.9%
C[C@@H]1CC2(OC3C[C@@]4(C)C5=CC[C@H]6C(C)(C)C(O[C@@H]7OC[C@@H](O)[C@H](O)[C@H]7O)CC[C@@]67C[C@@]57CC[C@]4(C)C31)OC(O)C1(C)OC21 (some centres not stated)	?	6.0%
CC(C)OC(=O)[C@@H]1CC[C@H](C)[C@@H](CCC[C@@H]2C[C@@H](O)C[C@H](CC#N)O2)O1	17%	2.6%
CCC1=C2CC[C@H]3C(=O)NC(=O)[C@H]3[C@H]2[C@@]2(C)C(=NCC(=O)OC)OC(=O)N2C1=O	-2%	2.3%
O=C1CC2OCC=C3CN4CC[C@]56c7ccccc7N1[C@H]5[C@H]2C3C[C@H]46 (some centres not stated)	-2%	5.2%
CC(C)[C@@H](CC(=O)N[C@@H]1CCCC[C@H]1C(=O)N[C@H](CC(=O)N[C@@H](CCC(=O)O)CC(=O)O)Cc1ccccc1)NC(=O)C[C@H](CO)NC(=O)[C@@H]1CCCC[C@H]1N	4%	-1.2%
C[N+]1(C)CCO[C@](O)(c2ccc(-c3ccc([C@]4(O)C[N+](C)(C)CCO4)cc3)cc2)C1	-8%	0.2%
COCC1C2CC[C@H]3C(OCc4ccc(OC)cc4)OC[C@]4(C)[C@H]3C2=C(CN4C(=O)OC(C)(C)C)[C@H](C)C1COC (some centres not stated)	?	7.8%
N#Cc1ccc(CS(=O)(=O)c2nc3ccccc3s2)cc1	5%	5.0%

From PubChem
